# Screening results as filed in PubChem BioAssay.
# Rango release inh – prevents RanGTP from dissociating the Rango-importin beta complex. Potency, µM (titrated, usually from 46.1 µM), inactives show top-dose activity change, negative = inhibition. actives 0.071% (n = 340,000). Biochemical FRET Rango-importin beta, RanGTP-induced dissociation. AID 540253. O95149+P62826; active means falling FRET ratio curve, often poorly fitted, with flat reads before Ran was added; inconclusive means other falling curves, or compound fluorescence or quenching; inactive means flat or rising ratio curve;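 further: potency means the concentration at half of the fitted maximal effect; % of control where 0% means no effect; nearly all actives have a fitted effect of over 45% in size; -100% = wells without RanGTP and RCC1; the record marks most hits as doubtful in a second field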
#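 FRET read at 45 min, room temperature: inhibitors block the CFP/YFP signal rise when RanGTP (0.6 uM Ran, 2 mM GTP, 0.2 uM RCC1) frees Rango (0.1 uM) from importin beta (0.25 uM). Pre-read after 5 min compound exposure flags interference.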
# Rango complex inh – inhibitors of Rango-importin beta complex formation | Q14974 | Potency, µM (top dose mostly 92.2 µM), for inactives: at the top dose inhibition of complex formation | Rango CFP/YFP FRET sensor + importin beta, 45 min | actives 0.031% (n = 340,000) | AID 540263; active = rising FRET ratio curve, often small or poorly fitted; inconclusive = mostly compound fluorescence or quenching in the first reads; inactive = flat curves in all reads;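 further: potency means the concentration at half of the fitted maximal effect; 0% = DMSO wells and 100% = buffer wells lacking importin beta; nearly all actives have a fitted effect of over 15% in size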
# Target sequence (Q14974 whole entry, looked up): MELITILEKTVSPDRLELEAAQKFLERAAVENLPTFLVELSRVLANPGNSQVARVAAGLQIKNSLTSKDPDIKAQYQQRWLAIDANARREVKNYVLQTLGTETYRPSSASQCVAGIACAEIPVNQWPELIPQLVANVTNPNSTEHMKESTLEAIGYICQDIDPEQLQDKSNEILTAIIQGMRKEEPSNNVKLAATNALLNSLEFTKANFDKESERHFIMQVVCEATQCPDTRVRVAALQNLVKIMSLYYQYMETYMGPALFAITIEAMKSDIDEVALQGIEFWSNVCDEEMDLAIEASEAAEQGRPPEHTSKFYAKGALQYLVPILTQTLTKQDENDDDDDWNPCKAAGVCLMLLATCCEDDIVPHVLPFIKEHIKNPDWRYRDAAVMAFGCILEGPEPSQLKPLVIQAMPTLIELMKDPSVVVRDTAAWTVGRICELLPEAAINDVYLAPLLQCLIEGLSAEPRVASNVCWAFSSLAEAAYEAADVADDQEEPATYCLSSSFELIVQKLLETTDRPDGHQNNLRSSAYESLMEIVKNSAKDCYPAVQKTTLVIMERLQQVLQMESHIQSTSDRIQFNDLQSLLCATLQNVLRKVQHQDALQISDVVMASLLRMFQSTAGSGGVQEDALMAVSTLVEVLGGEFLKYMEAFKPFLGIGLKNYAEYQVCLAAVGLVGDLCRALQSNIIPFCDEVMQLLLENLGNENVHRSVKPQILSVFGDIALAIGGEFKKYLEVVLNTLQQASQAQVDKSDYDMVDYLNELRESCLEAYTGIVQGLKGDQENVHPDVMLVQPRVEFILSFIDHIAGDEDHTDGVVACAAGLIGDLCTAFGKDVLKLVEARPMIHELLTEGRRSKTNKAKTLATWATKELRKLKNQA
#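 FRET biosensor (snurportin 1 IBB flanked by EYFP and cerulean), 50 nM, with compound 5 min, then 0.125 microM importin beta in PBS, 1 mM DTT, 0.02% Tween-20, 0.1% BSA. CFP/YFP ratio read after 45 min at room temperature; pre-read flags interference.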
# GLA inh pH 4.5 – alpha-galactosidase A (human) inhibition, pH 4.5. P06280. purified enzyme, 4-MU-alpha-Gal fluorescence, pH 4.5. activity change, negative = inhibition, % at 105 µM. 230,000 tested, under 10 active; inconclusive = small, poorly fitted or top-dose-only inhibition, or a rising curve; inactive = flat fitted curve, though single readings scatter; no compound was filed as active;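 further: 0% = full activity with enzyme and -100% = basal without enzyme; dose as in the result columns while the protocol names 77 µM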
# miR-21 reporter – raises the signal of a miR-21 reporter; HeLa miR-21 FLuc reporter, luciferase, 48 h; 340,000 tested, under 10 active; Potency, µM (top dose mostly 38.3 µM), without a hit: top-dose reporter change, positive = more light; active = well fitted rising curve with a large enough effect; inconclusive = small, poorly fitted or top-dose-only effect; inactive = no such curve, though single readings can be large or run the other way;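 further: % of control where 0% means no effect; miR-21 action dims this reporter so a rising signal means less miR-21 action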
#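 Luminescence from a firefly luciferase reporter carrying a miR-21 binding site downstream, stably expressed under a CMV promoter in HeLa cells that make miR-21 endogenously, reports miRNA modulation after 48 h compound exposure up to approximately 40uM final.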
# * = called active by the depositor; ? = inconclusive; · = no result given; & = joins results of further samples. These rows are one share of the data; rates above refer to the full screens.
no.	Rango release inh	Rango complex inh	GLA inh pH 4.5	miR-21 reporter	structure
1	·	·	12	-5%	Cc1nc2ccccc2n1CCc1nc2c3ccccc3nc(SCC#N)n2n1
2	17%	2.3%	4	0%	CC(=O)c1ccc(OCCCC(=O)OCC(=O)N2CCN(c3ccccc3)CC2)cc1
3	0%	-6.5%	-8	-5%	Nc1c(C(=O)N/N=C/c2ccc([N+](=O)[O-])cc2)cnn1-c1ccccc1
4	1%	1.1%	·	-3%	CC(=O)c1c(N)nc2n(c1=O)CCCCC2
5	0%	-0.1%	-1	-2%	CCOC(=O)C(NCc1ccccc1OC)(NC(=O)c1ccccc1)C(F)(F)F (stereo not given)
6	12%	-6.5%	·	-52%	Cc1ccc2oc(C(=O)NCC(c3ccco3)N(C)C)c(C)c2c1 (stereo not given)
7	-7%	1.2%	·	·	O=C1c2cc([N+](=O)[O-])ccc2-c2cc(Cl)c(NC(=O)C(F)(F)F)cc21
8	-14%	2.9%	11	-7%	Cc1ccc2c(c1)[C@H]1OCC[C@H]1[C@@H](c1ccncc1)N2
9	·	·	3	?	O=C(OCn1ncc(Br)c(Br)c1=O)c1c(F)cccc1F
10	?	?	·	·	COc1cccc(-c2sc3ccc(OC)cc3c2-c2ccc(O)cc2)c1
11	6%	-4.0%	·	·	O=S(=O)(c1ccc(Cl)cc1)N1CCCC(c2nc(-c3ccc(F)cc3)no2)C1 (stereo not given)
12	0%	-0.1%	0	-5%	CC1(C(=O)CSc2nc3ccccc3s2)CCC(=O)O1 (stereo not given)
13	31%	-0.8%	-26	-1%&-2%	Cc1cc(C)c(NC(=O)CN(c2ccccc2)S(=O)(=O)N(C)C)c(C)c1
14	-19%	4.6%	·	20%	Cc1ccc(OC(C)C(=O)Nc2ccncc2)cc1 (stereo not given)
15	-6%	2.7%	·	-2%	O=C(C1=C(O)C(=O)N(CCCN2CCOCC2)C1c1ccc(Cl)cc1)c1cc2ccccc2o1 (stereo not given)
16	7%	1.6%	-12	-16%	CSc1nc2c(c(=O)n1Cc1ccccc1)SC(C)C2 (stereo not given)
17	0%	-0.2%	·	0%	C=CCNC(=O)CN1CCN(Cc2ccc3c(c2)OCO3)CC1
18	-21%	-0.9%	-18	-3%	N#CC1=C(S)N(c2ccccc2)C(c2ccc(-c3cccc(Cl)c3)o2)NC1=O (stereo not given)
19	11%	2.9%	·	-3%	Cn1nc(C(C)(C)C)c([N+](=O)[O-])c1C(=O)N1CCCCCC1
20	32%	6.4%	·	0%	COCCCN(CCNC(=O)c1ccc(NC2=NC3CS(=O)(=O)CC3S2)cc1)Cc1ccco1 (stereo not given)
21	-5%	-2.9%	6	-1%	Cc1occc1C(=O)Nc1cccnc1
22	8%	7.0%	·	·	O=C(COc1ccc([N+](=O)[O-])cc1)N(C1CCCCC1)C1CCS(=O)(=O)C1 (stereo not given)
23	-16%	0.1%	-4	-57%	O=C(N/N=C/c1ccccc1)c1[nH]ncc1Br
24	8%	2.3%	·	·	CC(C)(C)[C@@H]1COC(=O)[C@H](Cc2ccc(F)cc2)C/C=C\C[C@@H](CC(=O)N(CCO)Cc2ccccc2)C(=O)N1
25	-23%	3.1%	·	-1%	COc1ccc(/C=C(\NC(=O)c2ccccc2)C(=O)N2CCCCC2)cc1OC
26	-2%	-2.2%	-10	-31%	CCOc1cc(/C=C2\SC(=N)N(c3nonc3N)C2=O)ccc1OCCN1CCOCC1
27	-14%	-1.5%	7	-11%	O=C(CCCc1c[nH]c2ccccc12)NCc1cccs1
28	2%	-1.0%	·	-4%	CCOC(=O)c1cccc(P(C)(C)=O)c1
29	4%	0.0%	·	-4%	COc1ccc(C)cc1NC(=O)c1cccc(-c2ccc(OC(C)=O)cc2)c1
30	1%	0.6%	2	-5%	COc1cc(-c2nc3cnccc3n2C)cc(OC)c1OC
31	-7%	3.0%	-4	-10%	O=C(NNc1cccc(Cl)c1)c1cccnc1Cl
32	-4%	0.4%	·	-2%	Cc1cc(NS(=O)(=O)c2ccc(NC(=O)c3ccc(Cl)cc3[N+](=O)[O-])cc2)no1
33	6%	-2.1%	4	-2%	CC1CCN(C(=O)CCc2ccc(S(=O)(=O)NC(C)(C)C)cc2)CC1
34	0%	1.6%	·	0%	C#CCN1C(=O)C2(OCCO2)c2ccccc21
35	0%	8.7%	·	-7%	CCOC(=O)C1C(=O)C=C(C)C(C(=O)OCC)C1c1cccc([N+](=O)[O-])c1 (stereo not given)
36	9%	2.6%	2	12%	COc1cc(OC)cc(-c2nc3ccccc3c(=O)n2OC(=O)c2ccc(C)c(C)c2)c1
37	25%	2.4%	7	-52%	C/C(=N\NC(=O)OC(C)(C)C)c1cccc([N+](=O)[O-])c1
38	2%	-1.4%	-3	1%	CC(=O)Oc1ccccc1C(=O)Oc1ccc(/C=N/n2cnnc2)cc1
39	0%	0.6%	·	-5%	O=C1CC(C(=O)O)(c2ccccc2)c2cccc(F)c21 (stereo not given)
40	-4%	2.6%	-26	-10%	O=C(NCc1nc(-c2ccc(C(F)(F)F)cc2)no1)c1cccs1
41	0%	0.8%	-7	-5%	CCCCOC(=O)C1CCC[C@@H](C)N1 (stereo not given in full)
42	1%	?	-3	-10%	Cc1ccc(S(=O)(=O)N(C)Cc2nc(-c3ccccn3)no2)cc1
43	-4%	-3.0%	·	0%	CC(=O)NC1(C(F)(F)F)NC(=O)N(CCc2ccccc2)C1=O (stereo not given)
44	?	?	6	-32%	CCC(=O)N(C)/C=C1\Sc2ccccc2C1=O
45	?	-0.9%	·	-3%	O=C(CCCN1C(=O)/C(=C\c2ccccc2)SC1=S)Nc1ccc(C(=O)O)cc1
46	0%	-3.9%	·	2%	Cc1ccccc1Cn1c2ccccc2c2cnn(CC(=O)NCCCN3CCN(C)CC3)c(=O)c21
47	-11%	-2.9%	·	2%	Cc1onc(C(=O)Nc2cccc(C(F)(F)F)c2)c1[N+](=O)[O-]
48	-13%	-0.1%	·	14%	O=C(Nc1ccccc1)c1cccc(N2C(=O)C3C4C=CC(C5CC45)C3C2=O)c1 (stereo not given)
49	-6%	0.0%	7	10%	CCOc1ccc(NC(=O)CNC(=O)c2ccc([N+](=O)[O-])cc2)cc1
50	-6%	0.7%	·	-29%	C=CCNC(=O)c1ccc(NC(=O)C2=CSCCO2)cc1

# Continued:
no.	Rango release inh	Rango complex inh	GLA inh pH 4.5	miR-21 reporter	structure
51	-5%	-4.1%	2	-4%	Cc1ccccc1NC(c1cccc(Cl)c1)c1nnnn1C1CCCCC1 (stereo not given)
52	-3%	5.9%	1	-11%	NC(=O)CC(NC(=O)Cc1ccc(Br)cc1)c1ccc(NC2CCC2)c([N+](=O)[O-])c1 (stereo not given)
53	1%	3.9%	·	0%	CC(=O)c1ccc(NC(=O)[C@@]2(CC(=O)O)CC(/C=C/c3ccccc3)=NO2)cc1
54	2%	-1.0%	8	-5%	COc1ccc(COCC(O)CN2CC(C)OC(C)C2)cc1OC (stereo not given)
55	?	?	5	-37%	Cn1c(=O)c(/C=C/c2ccc(F)cc2)nc2ccccc21
56	?	?	3	-6%	C=CCn1c(SCc2nc3ccccc3[nH]2)nnc1-c1ccncc1
57	16%	0.0%	·	·	CN(C)c1ccc(S(=O)(=O)NCC(=O)NCCC2=CCCCC2)cc1[N+](=O)[O-]
58	19%	1.1%	·	·	CC1CC(C)CN(C(=O)c2cccc(S(=O)(=O)N(C)c3ccccc3)c2)C1 (stereo not given)
59	19%	3.8%	-12	20%	CCOC(=O)c1[nH]cnc1N=Nc1c(O)ccc2ccccc12
60	?	9.4%	·	-2%	COc1ccc(CCn2c(=N)c(S(=O)(=O)c3ccc(C)cc3)cc3c(=O)n4ccccc4nc32)cc1
61	-17%	-0.1%	-18	0%	Cc1cccn2c(CN(C)CC3CCCCO3)c(C(=O)N3CCCCC3)nc12 (stereo not given)
62	-7%	3.8%	5	2%	CC(C)=C(NC(=O)c1ccccc1)C(=O)NCCCC(=O)O
63	-11%	-2.0%	-15	-4%	COc1ccc(C(=O)N/N=C/c2cccc3cccnc23)cc1
64	0%	-3.3%	·	·	C[C@@H](OC(=O)N1CCCCC1)[C@H]1O[C@]2(C)CCCC[C@H]1O2
65	-6%	1.3%	·	-16%	CCOC(=O)C1CCN(C2=NC(=O)/C(=C/c3ccc(OC)c(OC)c3)S2)CC1
66	-2%	0.2%	14	-13%	Cc1ccc(S(=O)(=O)N2CCC(CN3C(=O)c4cccc5cccc(c45)C3=O)CC2)cc1
67	-9%	1.0%	-10	2%	CCN1CCN(c2ncc(C(=O)Nc3cc(Cl)ccc3OC)c3ccccc23)CC1
